Menin MLL FP FL – menin-MLL binding inhibition, fluorescein peptide. Fluorescence polarization, fluorescein-MLL peptide displacement from menin. FP activity change, % at 61.4 µM. 290,000 tested, under 10 active. AID 1766; inconclusive = falling polarisation curve, or a change in total fluorescence; inactive = total fluorescence flat and polarisation flat or rising; no compound was filed as active; the % refers to the polarisation; negative = inhibition;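 note: % of control where 0% means no effect; inhibitors lower the polarisation; unlabelled MLL peptide was the positive control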
D2 potentiator – potentiates the human D2 dopamine receptor allosterically. P14416. DiscoveRx D2 beta-arrestin cells, luminescence, 90 min; 100% = 57 uM dopamine signal. potentiation, % (test concentration not listed). hit rate 0.23% among 360,000; active = potentiation of 50% or more; inconclusive = 30% to 50%; inactive = 30% or less;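 note: compound concentration not given in the record; tested on top of an EC20 dose of dopamine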
Target sequence (P14416 whole entry, looked up): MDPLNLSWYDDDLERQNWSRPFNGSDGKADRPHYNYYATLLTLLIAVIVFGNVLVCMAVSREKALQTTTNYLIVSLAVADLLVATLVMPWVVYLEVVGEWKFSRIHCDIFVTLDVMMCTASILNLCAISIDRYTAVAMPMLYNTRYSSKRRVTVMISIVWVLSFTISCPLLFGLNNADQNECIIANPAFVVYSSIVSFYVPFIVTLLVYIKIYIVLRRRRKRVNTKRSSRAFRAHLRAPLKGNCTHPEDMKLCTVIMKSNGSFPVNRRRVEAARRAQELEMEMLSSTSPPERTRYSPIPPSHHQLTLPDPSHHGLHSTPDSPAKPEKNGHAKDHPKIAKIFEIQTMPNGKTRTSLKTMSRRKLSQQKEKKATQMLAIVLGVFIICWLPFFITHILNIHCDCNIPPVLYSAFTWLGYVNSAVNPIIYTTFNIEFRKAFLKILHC
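PathHunter D2 cells, attached overnight at 37 deg C, received compound in DMSO plus dopamine at EC20 (50 nM final) for 90 min at 37 deg C. Beta-arrestin recruitment was read as luminescence after 1 h with detection reagent at ambient temperature.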
TRPV1 potentiator – enhances activation of the human vanilloid receptor TRPV1; Q8NER1; TRPV1-expressing cells, Fluo-8 calcium influx, capsaicin EC20 potentiation; host cell line not named in the record; control for the full effect not named in the record; potentiation, % at 8.33 µM; hit rate 0.02% among 320,000; active means potentiation above 80%; inconclusive means 30% to 80%; inactive means below 30%; note: 0% is about no effect
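TRPV1-expressing cells were cultured overnight at 35.5C and loaded with Fluo-8 calcium dye for 40 to 90 min at room temperature. After a 10 s baseline, compound was added and calcium influx was read kinetically for 3 min (ex 480/em 520 nm).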
ClpP mod – qHTS Assay for Activators of ClpP. AID 651965, 2013. purified B. subtilis ClpP, FRET peptide cleavage, 20 min. ATP-dependent Clp protease proteolytic subunit (Bacillus subtilis (strain 168)), P80244. hit rate 1.9% among 340,000. Potency, µM (highest dose often 57.5 µM), without a hit: at the top dose activity change, negative = active; active = well fitted falling curve with a large enough effect; inconclusive = small, poorly fitted or top-dose-only effect; inactive = no such curve, though single readings can be large or run the other way; note: potency is the fitted concentration of half-maximal effect; the source files actives as falling curves though it sought activators and does not explain the sign; nearly all actives have a fitted effect of over 65% in size; many hits overshoot -100%
Target sequence (P80244 whole entry, looked up): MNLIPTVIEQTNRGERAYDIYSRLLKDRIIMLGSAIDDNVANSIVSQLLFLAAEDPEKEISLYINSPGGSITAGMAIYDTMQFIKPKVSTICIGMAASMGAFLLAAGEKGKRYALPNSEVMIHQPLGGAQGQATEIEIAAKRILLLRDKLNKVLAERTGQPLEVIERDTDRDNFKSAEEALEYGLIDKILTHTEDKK
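Purified B. subtilis ClpP, 10 microg/mL final in Tris/HCl pH8 with KCl, BSA, glycerol and Tween-20, cleaved an Abz/nitrotyrosine-quenched decapeptide. Fluorescence (ex 320, em 430) was read at 0 and 20 min at room temperature. Delta was normalized to 5.8 microM ADEP and DMSO/no-enzyme controls.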
gsp ag – agonists of gsp mutant (McCune-Albright syndrome). hit rate 0.13% among 340,000. gsp mutant cells, cAMP HTRF, 30 min; control for the full effect not named in the record. Potency, µM (top dose mostly 76.9 µM), for inactives: top-dose activation (cAMP increase), hits mostly activators. AID 624287; active = well fitted activation curve with a large enough effect; inconclusive = small, poorly fitted or top-dose-only effect, or another doubt; inactive = no such curve, though single readings can be large or run the other way; cell line not stated here;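 note: phosphodiesterase inhibitor Ro 20-1724 added with compounds to block cAMP breakdown; potency is the fitted concentration of half-maximal effect; nearly all actives have a fitted effect of over 60% in size; about a fifth of the inactives were tested at one dose only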
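Cells in DMEM/10% FBS with G418 were pretreated with compounds in DMSO plus […] (300 uM stock) for 30 min at 37C. cAMP was measured by HTRF (cAMP-d2 plus anti-cAMP antibody-K) after 30 min at room temperature.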
Sfp inh – Sfp phosphopantetheinyl transferase inhibition; Q9F4F7; hit rate 3.5% among 310,000; Potency, µM, inactives show max response, negative = inhibition, most hits filed as inhibitors; Biochemical Sfp PPTase activity, qHTS; active = well fitted inhibition curve with a large enough effect; inconclusive = small, poorly fitted or top-dose-only effect, or another doubt; inactive = no such curve, though single readings can be large or run the other way;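 note: the enzyme is Sfp with the accession as filed and its product quenches rhodamine fluorescence; potency is the fitted concentration of half-maximal effect; 0% = enzyme reaction without inhibitor and -100% = no enzyme wells; top concentration of the series not given in the record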
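With Hepes-Na pH 7.6 buffer containing 10 mM MgCl2, Sfp (15 nM) modified BHQ-2-YbbR (12.5 uM) using rhodamine-CoA (5 uM). Two reads 30 minutes apart at 525/598 nm yielded each well's rate.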
gsp antag – gsp mutant antagonism; hit rate 0.4% among 340,000; Potency, µM (series often up to 76.9 µM), for inactives: at the highest dose activity change, negative = inhibition, most hits filed as inhibitors; gsp-mutant cells, cAMP HTRF, 30 min; control for the full effect not named in the record; active = falling curve of any shape with a large fitted effect; inconclusive = falling curve, mostly with a smaller effect; inactive = flat or rising curve; cell line not stated here;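 note: intracellular cAMP measured with PDE inhibitor Ro 20-1724 present during compound exposure; potency is the fitted concentration of half-maximal effect; % is set by controls: 0 for no effect and ±100 for the full control effect; nearly all actives have a fitted effect of over 65% in size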
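Cells in G418 medium, seeded 16-24 h, 37C; buffer exchange to DPBS + 1 mM CaCl2, 0.5 mM MgCl2, 0.05% BSA; cpds in DMSO + […] (300 uM stock), 30 min 37C; HTRF cAMP detection.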
* hit, by the source's call; ? = inconclusive; · = not tested or not shown; & = joins results of further samples; [ ] = dose if it differs, or a comment.

canonical_smiles | Menin MLL FP FL | D2 potentiator | TRPV1 potentiator | ClpP mod | gsp ag | Sfp inh | gsp antag
CC1=[N+]([O-])C(C)(C)C(C)N(O)C1=O (stereo unspecified) | -1.7 | -1.3 | -5.1 | -1.3% | 4.7% | -16.6% | 8.0%
CCCC(c1nnnn1Cc1cccs1)N1CCN(c2nc3ccccc3s2)CC1 (stereo unspecified) | -3.0 | -22.0 | ? | 1.0% | 4.1% | -10.8% | -10.9%
O=C(N/N=C/c1ccc(O)c(O)c1)c1cccc(S(=O)(=O)N2CCCCC2)c1 | -3.9 | 3.2 | 5.8 | 0.2% | -8.0%[15.4 µM] | -23.2% | 6.7%
COc1ccc(C(CNC(=O)c2oc3cc(Br)ccc3c2C)N2CCCCC2)cc1 (stereo unspecified) | · | -16.7 | 9.0 | 0.7%&-0.8% | -17.2% | -17.3% | 5.7%
O=C(/C=C/c1ccccc1Cl)NCCN1CCOCC1 | 0.9 | -24.2 | 9.2 | 2.2% | -19.2% | 11.6% | 18.9%
COc1ccc(C)cc1NC(=O)C1CCCN(S(=O)(=O)c2cccc3nonc23)C1 (stereo unspecified) | -0.4 | -13.4 | 6.1 | -2.8% | -51.0%[inhibitor] | 7.7% | 3.7%
CCn1cc([C@@H]2C[C@H]3CN(Cc4cccc(Cl)c4)C(=O)[C@]34CCCN24)c(C)n1 | 5.7 | -7.3 | 3.1 | · | -24.5% | 20.7% | -3.7%
O=C(CC1C(=O)NCCN1Cc1cccc(C(F)(F)F)c1)NC1CCCCCC1 (stereo unspecified) | · | -10.6 | -2.1 | -4.1% | 7.7% | 3.4% | -2.5%
CCn1c(CSc2nc3ccccc3s2)nnc1SCC(=O)c1ccc(Cl)cc1 | 5.8 | -4.7 | -12.3 | -3.3% | 5.7% | -2.9% | -33.0%
CN(C)S(=O)(=O)c1ccc(Cl)c(C(=O)OCC(=O)NNC(=O)c2cccs2)c1 | · | -3.1 | 1.2 | -0.3% | ? | · | -11.8%
COc1ccc(CNC(=O)CCSCc2cccc(F)c2)cc1 | 1.8 | -2.8 | -19.3 | -0.4% | -0.8%[15.4 µM] | -2.8% | 8.2%
O=C(NCCCn1ccnc1)/C(=C\c1cccnc1)NC(=O)c1cccc(Br)c1 | 0.0 | -7.8 | -4.5 | 2.2% | -50.6%[inhibitor] | 10.3% | -4.1%
O=C1[C@H]2CC3CCC2(O3)[C@@H]2OCCCN12 (stereo partly specified) | · | -2.4 | -24.2 | 0.4% | -55.6%[inhibitor] | · | 11.0%
COc1ccc(C(C)=O)cc1COc1ccc(-n2cnnn2)cc1 | 5.6 | -0.1 | 8.6 | -3.6% | 1.3% | -4.2% | -3.4%
CN1CCN(c2nc3c(c(=O)n(C)c(=O)n3C)n2CC(=O)C23CC4CC(CC(C4)C2)C3)CC1 | -1.3 | -14.3 | -16.1 | -3.0% | ? | -26.8% | 8.7%
Nn1c(COc2ccccc2)nnc1SCc1cc(=O)[nH]c2ccccc12 | 2.6 | -3.4 | -7.0 | -5.2% | -6.5% | 18.0% | 8.0%
O=C(OCC(=O)N1CCCCCC1)c1ccc[nH]c1=O | · | -0.9 | · | -9.6% | 2.6% | · | 13.5%
NC1=NC(=O)/C(=C\c2ccco2)S1 | ? | 2.5 | -11.8 | · | -14.7%[15.4 µM] | 35.5µM* | -26.9%
COc1cccc(/C=C(/C(=O)OCC(N)=O)c2ccccc2)c1 | -2.8 | -10.4 | -10.3 | · | 11.4%[15.4 µM] | 6.3% | 2.0%
CCOC(=O)c1csc(NC(=O)CSc2nnnn2CC)n1 | 5.6 | -8.8 | -0.6 | 0.4% | -28.5% | 8.1% | 21.2%
Cc1ccccc1NC(=O)CSC1=C(C#N)C(c2ccsc2)CC(=O)N1 (stereo unspecified) | -5.0 | -0.3 | -7.5 | -1.4% | -3.3% | -0.9% | 5.6%
O=C(c1ccccc1)N1CCc2ccccc21 | 0.3 | -7.4 | 2.2 | 0.9% | -13.2% | 13.9% | -21.0%
COc1cccc(/C=N/NC(=O)c2ccc(=O)n(C)c2)c1OC | 1.8 | -14.5 | -30.6 | -5.0% | -2.4%[15.4 µM] | 33.1%[activator] | 5.0%
Cc1nc2sc3c(c2c(=O)n1N)CCC3 | 4.5 | 3.7 | 7.2 | · | -0.7%[15.4 µM] | 6.7% | ·
O=[N+]([O-])c1cccc(/C=N/N2CCN(c3ccccn3)CC2)c1 | 4.4 | -13.7 | -0.5 | 134.0% | -23.6% | ? | 10.7%
NS(=O)(=O)c1ccc(N=Nc2c(O)ccc3ccccc23)cc1 | 4.2 | 14.0 | 0.5 | -0.1% | 14.4%[15.4 µM] | 13.4% | -10.7%
COc1ccc(C)cc1NS(=O)(=O)c1ccc2c(c1)N(C)CCO2 | · | -12.8 | 2.5 | -1.1% | 1.6% | -0.4% | 2.9%
O=[N+]([O-])c1ccc(N2CCN(S(=O)(=O)c3ccccc3)CC2)cc1NCc1ccco1 | -0.7 | · | -31.0 | · | · | 7.5% | ·
Cc1ccc(Cn2nnnc2CN2CCC(O)(c3ccc(F)cc3)CC2)cc1 | 1.4 | -18.5 | 2.0 | -1.2% | 8.8% | 8.4% | -1.1%
Cc1ccc(OCCc2csc(N)n2)cc1 | 1.1 | -1.2 | 7.4 | · | -14.4% | 7.7% | 7.9%

Record cards (already shown):
Shown for CCn1cc([C@@H]2C[C@H]3CN(Cc4cccc(Cl)c4)C(=O)[C@]34CCCN24)c(C)n1 = Menin MLL FP FL: 5.7; D2 potentiator: -7.3; TRPV1 potentiator: 3.1; ClpP mod: ·; gsp ag: -24.5%; Sfp inh: 20.7%; gsp antag: -3.7%
Shown for O=[N+]([O-])c1cccc(/C=N/N2CCN(c3ccccn3)CC2)c1 = Menin MLL FP FL: 4.4; D2 potentiator: -13.7; TRPV1 potentiator: -0.5; ClpP mod: 134.0%; gsp ag: -23.6%; Sfp inh: ?; gsp antag: 10.7%

Carrying on:
canonical_smiles | Menin MLL FP FL | D2 potentiator | TRPV1 potentiator | ClpP mod | gsp ag | Sfp inh | gsp antag
O=C(COC(=O)c1cccs1)NCCC1=CCCCC1 | 5.5 | -9.8 | 1.8 | · | 10.1%[15.4 µM] | 10.1% | 4.9%
Cc1cc(-n2cccn2)ccc1CN1CCN(C2CCCC2)C(CCO)C1 (stereo unspecified) | -4.1 | -6.5 | 3.6 | · | ? | -2.5% | 8.4%
Fc1ccc(CN2C3=NCCCN3c3ccccc32)cc1 | · | -6.0 | 3.9 | -0.6% | 24.2% | 9.6% | 9.5%
CC1CCCN(C(=O)COC(=O)COc2ccc(Cl)cc2)C1 (stereo unspecified) | · | 1.8 | · | 1.6% | -1.0%[15.4 µM] | · | 1.5%
COc1cc(/C=N/NC(=O)c2ccncc2)ccc1OC(=O)c1ccccc1Cl | -3.2 | -0.3 | -2.6 | -0.1% | ? | -7.2% | 0.5%
FC(F)(F)c1ccc(Oc2ccc3c(C(F)(F)F)cc(C(F)(F)F)nc3n2)cc1 | 0.0 | -3.8 | -6.1 | -5.5% | -54.0%[inhibitor] | 12.2% | -1.2%
Cc1cccc(C2c3[nH]c4ccccc4c3CCN2C(=O)c2cc(-c3cccn3C)n[nH]2)n1 (stereo unspecified) | 2.8 | -13.9 | 5.8 | · | -26.6% | -18.6% | -12.2%
CCCOc1ccc(N2C(=O)CC(N(CCc3ccc(OC)cc3)C(=O)/C=C/C(=O)O)C2=O)cc1 (stereo unspecified) | 6.5 | -1.3 | 9.8 | · | -16.2%[15.4 µM] | -8.6% | 10.9%
CCN(CC)S(=O)(=O)c1cc(C(=O)O)ccc1Cl | 4.8 | -7.1 | 6.6 | -0.7% | -8.5% | -9.6% | -7.3%
COc1ccc(C(=O)NNC(=O)C(=O)Nc2ccc(C)cc2)cc1 | 2.5 | -8.5 | 5.8 | · | -0.7%[15.4 µM] | 20.7% | 5.0%
CCc1nnc(NC(=O)CSc2nc3c(cc2C#N)CCC3)s1 | 0.7 | -4.7 | 11.7 | -4.7% | 3.2%[15.4 µM] | -10.2% | -3.2%
Oc1ccc(-n2cnnn2)cc1 | 2.0 | ? | -2.4 | 0.5% | 17.6% | -2.9% | 12.0%
CCCNc1nc(Cl)nc(Nc2ccc(Cl)cc2)n1 | -0.7 | -2.4 | -9.3 | · | -14.4% | 7.6% | -4.8%
CC1(C)CC2CC(C)(CN2C(=O)c2cc(-c3ccc(O)cc3)on2)C1 (stereo unspecified) | 2.1 | -0.2 | -15.7 | · | 11.4%[15.4 µM] | 19.1% | -8.5%
CCOc1ccc(CSCCNC(=S)Nc2ccc(OC)cc2)cc1 | 1.6 | -24.3 | -8.4 | -1.0% | 21.6% | 6.7% | -7.8%
CCCC(=O)Nc1nnc(S(=O)(=O)N(CC)c2ccc(OC)cc2)s1 | -4.8 | -3.5 | -2.5 | -0.6% | 9.1%[15.4 µM] | 14.2% | 3.0%
CN(CC(=O)Nc1ccc(Cl)cc1)C(=O)c1ccc(N2CCCC2=O)cc1 | · | -29.0 | -2.4 | -2.4% | -8.6% | · | -6.2%
Nc1nnc(SCC(=O)OCC(=O)c2ccccc2)s1 | -1.5 | -2.5 | -16.4 | · | -47.1%[inhibitor] | 8.6% | 7.4%
CCOC(=O)c1csc(NC(=O)CSc2nnnn2-c2ccc(OCC)cc2)n1 | 3.4 | -5.5 | -8.6 | 0.8% | ? | 15.1% | 14.7%
Cn1nc(C(=O)OCC(=O)c2ccc(Cl)cc2)c2ccccc2c1=O | · | -4.9 | · | -3.4% | -12.7% | · | -7.2%
COCc1cc(C)nc(SCC(=O)Nc2cccc(C)c2)c1C#N | 1.3 | -8.3 | 4.3 | -0.2% | ? | 18.4% | 33.5%[activator]
C#CCN(C[C@H]1[C@H](OC(=O)Nc2c(C)noc2C)[C@H](OC(=O)Nc2c(C)noc2C)C[C@H]2C(=O)N(c3ccccc3)C(=O)[C@@H]12)S(=O)(=O)c1ccc(C)cc1 | · | 2.6 | · | 1.8% | -84.8%[inhibitor] | · | ·

Screening results: PubChem, National Center for Advancing Translational Sciences (NCATS)

An unsorted share of the library (roughly 5.1% active in at least one column).
